High-throughput results from PubChem.
KCNQ2 enhance – KCNQ2 (rat) channel potentiation | O88943 | CHO-K1 KCNQ2, FluxOR thallium flux fluorescence; active compounds read high | B-score at 10 µM | 310,000 tested, 0.54% active | AID 2239;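 active means fluorescence ratio B-score at least 3 SD of library B-scores, with initial fluorescence B-score within 3 SD, cut at about 5.3 in these data; same plate scores as AID 2156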;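 further: B-score of peak minus minimum over baseline fluorescence ratio after K+ and Tl+ stimulus; positive B-score means potentiation of KCNQ2 with more thallium influx and brighter signal; only the inactives scoring about 0 or higher are listed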
Target sequence (O88943 whole entry, looked up): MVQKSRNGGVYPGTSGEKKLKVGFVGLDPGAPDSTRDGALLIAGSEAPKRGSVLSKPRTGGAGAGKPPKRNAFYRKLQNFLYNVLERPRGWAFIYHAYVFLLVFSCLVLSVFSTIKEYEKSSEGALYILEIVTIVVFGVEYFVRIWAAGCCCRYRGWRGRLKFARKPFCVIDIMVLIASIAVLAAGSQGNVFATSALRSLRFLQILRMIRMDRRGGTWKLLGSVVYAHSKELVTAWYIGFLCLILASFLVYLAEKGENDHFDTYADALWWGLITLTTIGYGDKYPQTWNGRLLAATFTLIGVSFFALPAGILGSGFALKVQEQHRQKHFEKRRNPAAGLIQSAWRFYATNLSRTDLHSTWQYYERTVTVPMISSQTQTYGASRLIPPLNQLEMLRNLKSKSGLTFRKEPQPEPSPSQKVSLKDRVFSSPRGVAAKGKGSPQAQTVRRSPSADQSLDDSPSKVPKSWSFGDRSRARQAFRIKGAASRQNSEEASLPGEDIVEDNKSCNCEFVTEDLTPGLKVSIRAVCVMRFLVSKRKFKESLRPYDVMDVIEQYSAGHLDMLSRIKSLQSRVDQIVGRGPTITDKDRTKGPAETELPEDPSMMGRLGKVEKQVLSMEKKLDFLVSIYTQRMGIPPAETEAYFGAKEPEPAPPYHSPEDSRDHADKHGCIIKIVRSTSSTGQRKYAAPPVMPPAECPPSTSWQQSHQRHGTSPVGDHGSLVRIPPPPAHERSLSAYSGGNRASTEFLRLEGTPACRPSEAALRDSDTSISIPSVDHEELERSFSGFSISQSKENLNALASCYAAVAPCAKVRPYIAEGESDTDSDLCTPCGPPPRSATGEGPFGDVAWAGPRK
KCNQ2 enhance baseline – further read-out of KCNQ2 enhance, marked with its call; B-score; compound at 10 µM; measured here: initial fluorescence intensity artifact check;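 brightness before thallium and not channel activity; 0 = typical well and far values either way flag optical interference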
* = called active by the depositor.

KCNQ2 enhance,KCNQ2 enhance baseline,structure
1.4,0.66,NC(=S)NNC(=O)c1ccccc1Cl
1.71,-0.71,Cc1nnc2n(Cc3ccccc3)c(=O)c3c4c(sc3n12)COC(C(C)C)C4 (stereo not given)
0.22,-0.31,CC1(C)Cc2c(C#N)c(SCc3nc4ccccc4[nH]3)nc(N3CCOCC3)c2CO1
0.14,-0.91,Cc1nc2ccc(NC(=O)c3ccc(Br)o3)cc2s1
1.42,-0.36,COc1cccc(N2C(=O)CC(N3CCC(C(N)=O)(N4CCCCC4)CC3)C2=O)c1 (stereo not given)
1.32,-0.6,CCN(CC(=O)N1CCN(c2ccccc2)CC1)S(=O)(=O)c1ccc(C)cc1
0.32,1.86,c1cn(CCCNC2CCCCCCC2)cn1
0.88,-0.32,C=CCn1c(C(CCC(C)C)CC(C)(C)O)n[nH]c1=S (stereo not given)
0.68,0.19,CCC(C)NC(=O)Cn1c(-c2ccccc2)cc(C(C)=O)c1C (stereo not given)
0.83,-0.69,CCN(CC)C(=O)CN1C(=O)c2cccc3cccc(c23)C1=O

A stretch of the results above, for reference:
KCNQ2 enhance,KCNQ2 enhance baseline,structure
0.68,0.19,CCC(C)NC(=O)Cn1c(-c2ccccc2)cc(C(C)=O)c1C (stereo not given)
0.83,-0.69,CCN(CC)C(=O)CN1C(=O)c2cccc3cccc(c23)C1=O

Next section.
KCNQ2 enhance,KCNQ2 enhance baseline,structure
2.05,-0.3,CCOC(=O)Nc1ccc2c(COC(=O)CN(C)S(=O)(=O)c3ccc(C)cc3)cc(=O)oc2c1
0.04,1.48,Cc1ccccc1Sc1ncnc2onc(C)c12
0.25,0.07,CN(C1CCCCC1)C(CNS(=O)(=O)c1ccc(Cl)cc1)c1ccccc1 (stereo not given)
0.68,-0.54,CC(C)Oc1ccc(C(=O)O)c(C(=O)O)c1
3.84,-1.9,O=C(OCC(=O)c1c[nH]c2ccccc12)c1ccco1
0.57,0.42,CC1(C)N([O-])C2=C(CCCC2)[N+]1=O
1.58,1.04,CCC1NC(=O)c2ccccc2N1c1cccc(Cl)c1 (stereo not given)
3.77,-1.6,CC(=O)Nc1ccc(NCc2ccc(C)s2)cc1
1.58,-2.23,COCCCNC(=O)CN(c1cc([N+](=O)[O-])ccc1OC)S(C)(=O)=O
1.47,-0.2,CC1(C)Cc2c(c(-c3ccccc3)nc3sc4c(=O)[nH]c(=S)[nH]c4c23)CO1
0.12,0.73,Cc1ccc(NS(=O)(=O)c2coc(C(N)=O)c2)cc1F
1.37,-1.02,O=C(NCc1cccnc1)C1CCCCN1S(=O)(=O)c1ccc(F)cc1 (stereo not given)
0.53,-0.2,CCN(CC)C(=O)C1=C(C)Nc2nnnn2C1c1cccnc1 (stereo not given)
6.74*,1.15*,COc1ccc(NC(=O)CSCC(=O)Nc2ccccc2N2CCCCC2)cc1
1.3,0.15,O=C(NC1CC2CCCC(C1)N2Cc1ccccc1)c1cccc(Cl)c1 (stereo not given)
0.46,0.2,Cn1c(=O)oc2cc(S(=O)(=O)NC3CCCCCCC3)ccc21
0.98,-1.56,Cc1cccc(C)c1N(CC(=O)NCc1ccc(F)cc1)C(=O)c1csnn1
2.44,-0.16,COc1ccccc1C(N)=S
0.08,-0.07,O=S(=O)(c1ccc(Br)cc1)N1CCN=C1SCc1cccnc1
0.38,-0.8,Cc1ccccc1C(=O)Nc1ccc(S(=O)(=O)N2CCOCC2)cc1
1.1,-0.01,CCOc1ccc(-n2c(N)c(C(=O)NCC3CCCO3)sc2=S)cc1 (stereo not given)
0.1,0.8,CC(C)(CNc1ccc([N+](=O)[O-])cc1Cl)N1CCOCC1
1.07,-0.14,COC1CCCCC1NS(=O)(=O)c1ccccc1 (stereo not given)
0.02,0.12,CCN1CCN(CCC2Oc3cc([N+](=O)[O-])ccc3NC2=O)CC1 (stereo not given)
0.09,0.03,Cc1ccc2c(c1)C(c1ccccc1)N(C(=O)c1ccc(Br)cc1)CC(=O)N2 (stereo not given)
1.06,1.83,CC(CCc1ccco1)NC(=O)CCc1nnc2ccc(NCc3ccccc3)nn12 (stereo not given)
0.16,-0.32,CCCCOC(=O)c1sc2nc(N3CCOCC3)c3c(c2c1N)CC(C)(C)OC3
0.28,0.2,O=C(c1ccc2snnc2c1)N1CCSCC1
0.22,1.76,Cc1c(NC(=O)CSC2=C(C#N)C(c3ccccc3F)CC(=O)N2)c(=O)n(-c2ccccc2)n1C (stereo not given)
0.49,0.5,CC(C)Cn1c(N)c(C(=O)CSc2nc3ccccc3c(=O)n2CCCN2CCOCC2)c(=O)n(C)c1=O
0.02,1.99,Cc1ccccc1CN(C)C(=O)COC(=O)CSc1ccc([N+](=O)[O-])cc1
1.27,-0.07,Cc1nc2sc(C(=O)O)c(N)c2c2c1COC(C)(C)C2
0.2,-0.19,COc1cccc(-c2nc3n(n2)C(c2cccs2)C(C(=O)Nc2cccnc2)=C(C)N3)c1 (stereo not given)
0.52,1.76,CCN(CC)CCNC(=O)c1ccc(NC(=O)c2ccc(F)cc2F)cc1
1.48,0.92,COc1ccccc1-c1nnc(NC(=O)c2ccc(S(=O)(=O)N(C)C)cc2)o1
0.07,1.18,CCC1CCC2(CC1)SCC(=O)N2c1ccccc1 (stereo not given)
0.33,0.84,Cc1ccc(C(=O)C[n+]2ccc(-c3nnc4n3CCC4)cc2)cc1
0.46,0.67,CC(C)n1c(SCC(=O)N2CCN(C(=O)c3ccco3)CC2)nc2c1c(=O)n(C)c(=O)n2C
0.64,-0.07,Cc1cccc(NC(=O)CC2Nc3cccc4cccc(c34)NC2=O)c1 (stereo not given)
1.13,-0.83,CC(=O)Nc1cc(C(=O)OCC(=O)c2ccc(C)cc2)ccc1C
1.28,-1.25,CCOC(=O)N1CCN(C(=O)CN2C(=O)CC(C)(C)S(=O)(=O)c3ccccc32)CC1
0.72,0.5,CC(=O)NCCNC(=O)c1oc2ccccc2c1CSc1ncn[nH]1
0.84,-2.11,O=C(NCc1ccccc1)C1CCCN(c2cnccn2)C1 (stereo not given)
0.76,1.24,COCCn1nnnc1C(c1ccccc1OC)N1CCN(C(=O)c2ccco2)CC1 (stereo not given)
0.87,-0.07,O=C(COC(=O)c1ccc([N+](=O)[O-])s1)Nc1ccccc1
0.48,-1.67,CCOC(=O)Cn1nnnc1C(CC)N(Cc1ccccc1)Cc1cc2cc(C)ccc2[nH]c1=O (stereo not given)
1.04,0.77,COc1ccc(-n2nc(C(=O)N3CCC(C#N)CC3)c3c4ccccc4n(C)c3c2=O)cc1
0.09,-0.69,CN1CCC(=NNC(=O)CN(c2ccc(Oc3ccccc3)cc2)S(C)(=O)=O)CC1
1.27,-0.76,Cn1c(=O)c2c(nc(Oc3ccc4ccccc4c3)n2C)n(C)c1=O
0.3,-2.04,Cc1ccc(C(=O)NC(=O)CSc2nnc(C)s2)cc1

Compound profiles, as listed above. Values in the order: KCNQ2 enhance, KCNQ2 enhance baseline
COc1ccc(-n2nc(C(=O)N3CCC(C#N)CC3)c3c4ccccc4n(C)c3c2=O)cc1 in the list: 1.04, 0.77
CC(=O)NCCNC(=O)c1oc2ccccc2c1CSc1ncn[nH]1 in the list: 0.72, 0.5
O=C(COC(=O)c1ccc([N+](=O)[O-])s1)Nc1ccccc1 in the list: 0.87, -0.07
CCOC(=O)Cn1nnnc1C(CC)N(Cc1ccccc1)Cc1cc2cc(C)ccc2[nH]c1=O (stereo not given) in the list: 0.48, -1.67

New compounds follow.
KCNQ2 enhance,KCNQ2 enhance baseline,structure
0.1,0.98,CC(=O)C1=C(C)NC(SCC(N)=O)=C(C#N)C1C (stereo not given)
0.87,-0.44,COc1ccc(NC(=O)c2cccn(CC=C(C)C)c2=O)cc1
0.06,-0.88,CC(=O)c1c(O)c(C)c(-c2ccccc2)n(-c2ccccc2)c1=O
0.03,0.02,CCCc1ccc2oc(C(=O)NCc3nnc(C)o3)c(C)c2c1
1.65,1.82,Cc1ccc(C)c(NC(=S)NNC(=O)c2sccc2C)c1
1.54,-0.6,CCN(C(=O)c1cccs1)c1nnc(-c2ccncc2)s1
1.02,-0.73,O=C(O)CCC(=O)NNC(=O)CCCOc1ccc(Cl)cc1Cl
3.51,-2.46,COC(=O)CSc1nc2c(c(=O)n(C)c(=O)n2C)n1CCC(C)C
0.78,1.13,O=C(Nc1ccc(Cl)cc1)NC1(C(=O)NCCCN2CCOCC2)CCCCC1
1.6,-0.1,COc1cc2[nH]c(Cl)c([N+](=O)[O-])c2cc1OC
0.09,-0.2,O=C(O)C1C2C=CC(C2)C1C(=O)NCc1ccccn1 (stereo not given)
0.91,-0.39,O=S(=O)(NCC(c1cccs1)N1CCc2ccccc2C1)c1ccccc1 (stereo not given)
0.4,-0.99,CCCOc1ccc(/C=N/Nc2ccccn2)cc1OC
1.51,-2.27,COc1ccc(Cl)cc1S(=O)(=O)N1CCC(C(=O)NCC2CCCO2)CC1 (stereo not given)
0.69,-0.08,Cc1ccc(Cn2c(=O)c3c(ncn3C)n(C)c2=O)cc1
0.07,-1.05,CCCCCCn1c(C(C)O)nc2ccccc21 (stereo not given)
0.75,1.42,O=S(=O)(NCCNS(=O)(=O)c1cccs1)c1cccs1
0.33,-0.95,CC1CN(c2nnc(-c3ccccc3)c3ccccc23)CC(C)O1 (stereo not given)
0.61,-1.96,CN(C(=O)c1ccccc1[N+](=O)[O-])c1ccccc1C(=O)NCc1ccccc1
0.01,-0.06,Cc1ccc(S(=O)(=O)/N=C(/Nc2ccc(F)cc2F)c2ccc(F)cc2)cc1
1.74,0.08,CCCCNC(=O)c1cn(CC)c2cc(N3CCN(C(=O)c4ccco4)CC3)c(F)cc2c1=O
1.03,0.42,O=C(Cc1cccs1)N1CCC(c2nc3c(nnn3Cc3ccc(F)cc3)c(=O)[nH]2)CC1
1.91,0.63,CCC(C(=O)OCC(=O)Nc1ccc2[nH]c(=O)[nH]c2c1)c1ccccc1 (stereo not given)
1.25,-0.24,CCOC(=O)c1c(C)[nH]c(C)c1S(=O)(=O)N(C)CC(=O)Nc1ccccc1
0.67,0.54,Cc1cccc(NC(=S)NC(C)C(c2cccs2)N2CCN(C)CC2)c1C (stereo not given)
0.06,-1.34,CCNc1nc(NCC)nc(OCCOC(C)=O)n1
0.25,-0.38,Cc1cc2ncc(-c3ccc(Cl)cc3)c(N)n2n1
0.01,0.18,O=C(O)CCCCCCCCc1cn(CCc2c[nH]c3ccccc23)nn1
0.28,-1.99,CCOC(=O)CCn1nc(-c2ccccc2)cc1N
0.67,-1.05,COc1ccc(CCn2c(=N)c(C(=O)N3CCN(C)CC3)cc3c(=O)n4ccccc4nc32)cc1
0.51,0.01,Cc1csc(=Nc2c(C)n(C)n(-c3ccccc3)c2=O)n1-c1ccccc1
1.75,-1.33,C/C(=N/NC(=O)CNC(=O)c1ccc2c(c1)OCO2)c1ccc2c(c1)CCCC2
0.14,0.91,CN(CC(=O)Nc1ccc(Cl)cc1)C(=O)CCc1nc2sc3c(c2c(=O)[nH]1)CCCC3
0.11,-1.12,CCOC(=O)C1CCN(C2CCN(C(=O)c3oc4c(F)cccc4c3C)CC2)CC1
0.02,-0.36,OC(COCc1ccccc1)CN1CCCC1 (stereo not given)
0.56,-2.41,Cc1ccc(NC2CCCN(C(=O)c3ccnc(Cl)c3)C2)cc1C (stereo not given)
1.6,0.08,Cc1ccccc1NC(=O)c1sc(NC(=O)C2CC2)nc1C
1.26,-0.02,Cc1cccc(NC(=O)COc2ccc(-c3nn(C)c(=O)c4ccccc34)cc2)c1
0.31,1.97,Oc1cccnc1CCc1ccccc1
0.18,-0.01,COc1ccc(N2CCN(S(=O)(=O)CCNC(=O)C3CCCCC3)CC2)cc1
1.76,0.06,COc1ccc(NC(=O)COC(C)=O)cc1OC
0.14,1.18,Cc1cc(NC(=O)c2ccc(C#N)cc2)n(-c2ccccn2)n1
0.29,1.48,COc1cc(N)n(S(=O)(=O)c2ccc(C)cc2)n1
0.51,-0.26,CCCC(=O)N(CCN1CCOCC1)c1nc2c(OC)ccc(C)c2s1
1.73,0.76,O=C(O)COc1ccc(NC(=O)c2ccc(NC(=O)c3ccco3)cc2)cc1
0.04,0.61,COC(=O)C1=C[C@@H](C(=O)OC)[C@@H]2C3=C(C(=O)[C@]2(CC(C)C)NC(=O)c2ccccc2)[C@H](C)n2c(=O)n(-c4ccccc4)c(=O)n2[C@@H]3C1
1.67,-0.08,COc1ccc(-n2nnnc2SCC(=O)Nc2nnc(C)s2)cc1OC
0.71,2.42,Cc1cc(C)c(S(=O)(=O)NCCc2cc3ccc(C)c(C)c3[nH]c2=O)c(C)c1
0.39,-0.38,COc1ccc(CNC(=O)CCC(=O)N2CC(C)Oc3ccccc32)cc1 (stereo not given)
1.85,-0.84,CCC1CCCCN1CCCNC(=O)c1ccc2c(c1)NC(=O)CN2C (stereo not given)

Exported as a markdown table: entries from further up
| structure | KCNQ2 enhance | KCNQ2 enhance baseline |
| --- | --- | --- |
| COc1ccc(-n2nnnc2SCC(=O)Nc2nnc(C)s2)cc1OC | 1.67 | -0.08 |
| COC(=O)C1=C[C@@H](C(=O)OC)[C@@H]2C3=C(C(=O)[C@]2(CC(C)C)NC(=O)c2ccccc2)[C@H](C)n2c(=O)n(-c4ccccc4)c(=O)n2[C@@H]3C1 | 0.04 | 0.61 |
| COc1ccc(CNC(=O)CCC(=O)N2CC(C)Oc3ccccc32)cc1 (stereo not given) | 0.39 | -0.38 |
| CCCC(=O)N(CCN1CCOCC1)c1nc2c(OC)ccc(C)c2s1 | 0.51 | -0.26 |
| O=C(O)COc1ccc(NC(=O)c2ccc(NC(=O)c3ccco3)cc2)cc1 | 1.73 | 0.76 |
| COc1ccc(NC(=O)COC(C)=O)cc1OC | 1.76 | 0.06 |

New compounds follow
KCNQ2 enhance,KCNQ2 enhance baseline,structure
0.34,-1.86,CC[C@H](CO)NCCN[C@H](CC)CO
1.07,-1.99,O=C(c1ccc(F)cc1)N1CCN(c2ccccn2)CC1
1.77,-0.09,CCC(C)N(C(=O)Cn1nc(C)c([N+](=O)[O-])c1C)C1CCS(=O)(=O)C1 (stereo not given)
0.27,0.91,O=C(Nc1ccc(Br)cc1Br)C1CC(=O)N(Cc2ccccc2)C1 (stereo not given)

An excerpt; count on the stated rates, not on these rows.
